Assay outcomes as filed in PubChem BioAssay.
StopGo FLuc – Primary qHTS Assay for Foot and Mouth Disease Virus Antivirals against NCGC Sytravon and CBC Compound Libraries: Firefly Luciferase Signal | HEK cells with a luciferase reporter of 2A StopGo recoding | actives 0.23% (n = 120,000) | Potency, µM (series often up to 57.5 µM), for the others: top-dose signal change, negative = less light | AID 1745856, 2022; active = well fitted falling curve with a large enough effect; inconclusive = small, poorly fitted or top-dose-only effect; inactive = no such curve, though single readings can be large or run the other way; also: nearly all actives have a fitted effect of over 60% in size; overnight with compound
StopGo RLuc – Primary qHTS Assay for Foot and Mouth Disease Virus Antivirals against NCGC Sytravon and CBC Compound Libraries: Renilla Luciferase Signal. Potency, µM (series often up to 57.5 µM), for the others: top-dose signal change, negative = less light. HEK cells with a luciferase reporter of 2A StopGo recoding. AID 1745857, 2022. actives 0.32% (n = 120,000); active means well fitted falling curve with a large enough effect; inconclusive means small, poorly fitted or top-dose-only effect; inactive means no such curve, though single readings can be large or run the other way; also: nearly all actives have a fitted effect of over 55% in size; overnight with compound
* = called active by the depositor; ? = inconclusive; & = joins results of further samples; [ ] = another dose, or the depositor's remark. % is scaled to controls: 0 for no effect and ±100 for the full control effect; potency is read from the fitted curve at half-maximal effect.

A first look:
smiles	StopGo FLuc	StopGo RLuc
COC(=O)c1c(NC(=O)CCCOc2ccccc2C)sc2c1CCC(C)C2 (centres undefined)	-7%	-7%
CCOc1ccc(CNCc2c(C(=O)O)c(C)n(Cc3cccc(OC)c3)c2C)cc1OC	-6%	-5%

The whole of this part (from the top)
smiles	StopGo FLuc	StopGo RLuc
COC(=O)c1c(NC(=O)CCCOc2ccccc2C)sc2c1CCC(C)C2 (centres undefined)	-7%	-7%
CCOc1ccc(CNCc2c(C(=O)O)c(C)n(Cc3cccc(OC)c3)c2C)cc1OC	-6%	-5%
Cc1cc(C)c2oc(=O)cc(CN3CCN(C)CC3)c2c1	2%	10%
COC(=O)c1cccc(NC(=O)Nc2cc(C(=O)NCc3cccc(F)c3)ccc2N2CCCC2)c1	-3%	63%[activator]
CCn1c(-n2nc(C)c(C)c2C)nc2c1c(=O)n(CC(=O)OC)c(=O)n2C	1%	6%
CC(/C=C/c1cccnc1)=C\C(=O)O	7%&1%	-2%&4%
COc1ccc(CCCc2nnc(SCC(=O)Nc3ccc(C)c(C)c3)o2)cc1	8%	-11%
O=C(Nc1cccc(F)c1)C1CC2CCCC(C1)C2=O (centres undefined)	5%	-6%
CC1=C(C(=O)OCC2CCCCC2)C(c2cccc(Cl)c2Cl)CC(=O)N1 (centres undefined)	-18%	-7%
COc1cc(OC)c(NC(=O)C2=C(C)C(=O)OC23CCN(C(C)=O)CC3)cc1Cl	-17%	-7%
CCOC(=O)c1cnc2ccc(C(=O)OC)cc2c1Nc1ccc(OCc2ccccc2Cl)cc1	-3%	-13%
O=S(=O)(NCc1nnnn1-c1ccccc1)c1ccc(Cl)cc1	37%[activator]	10%
CCCCC(=O)N1CCN(c2nc(-c3ccco3)c3c(c2C#N)CCCC3)CC1	-14%	-6%
CC(C)OCC(O)Cn1c(N2CCCCC2)nc2c1c(=O)[nH]c(=O)n2C (centres undefined)	14%	10%
CCOCCCNC(=S)NCc1cccc(COCc2ccccc2)c1	0%	83%[activator]
COc1ccc(N2CCN(S(=O)(=O)CCNC(=O)Cc3ccc(OC)c(OC)c3)CC2)cc1	-15%	6%
O=C(c1cc2ccccc2oc1=O)N1CCN(S(=O)(=O)c2ccc(F)cc2)CC1	7%	-3%
COc1ccc(/C=C(/C#N)c2c(F)cccc2Cl)cc1	0%	44%[activator]
O=S(=O)(Nc1nc2ccccc2nc1Nc1ccccc1)c1ccc2c(c1)OCCO2	50%[activator]	209%[activator]
CCC(=O)N1N=C(c2cn(-c3ccccc3)nc2-c2ccc(OC)cc2)CC1c1ccco1 (centres undefined)	10%	75%[activator]
COc1c(Cl)cc(C(=O)N(Cc2ccccc2F)C2CCS(=O)(=O)C2)cc1Cl (centres undefined)	8%	3%
Cn1nc(-c2ccc(OCC(=O)Nc3ccc(Cl)cc3)cc2)c2ccccc2c1=O	?	-7%
O=C(CN1C(=O)C2(SCC(=O)N2c2ccccc2)c2ccccc21)Nc1ccccc1C(F)(F)F (centres undefined)	11%	-1%
O=C(O)c1cc(C(=O)O)c2sc(=O)[nH]c2c1	-10%	9%
Cn1c(=O)c(=O)n(C)c2cc(NC(=O)c3ccccc3Br)ccc21	-8%	65%[activator]
Cc1cccc(-c2nnc(SCc3coc(-c4cccs4)n3)n2C)c1	11%	-2%
Cc1ccc(NC(=O)Cn2nnc(C(=O)NCc3ccc4c(c3)OCO4)c2N)cc1Cl	-14%	-7%
CC(C)(C)c1ccc(NC(=O)c2scc3c2CCCC3)cc1	25%	-4%
O=C(CCS(=O)(=O)c1ccccc1)N(Cc1cccnc1)c1nc2ccc(F)cc2s1	-3%	-8%
N[C@@H](C(=O)N[C@@H]1C(=O)N2C(C(=O)O)=C(Cl)CS[C@H]12)c1ccccc1	-12%[11.5 µM]	-10%[11.5 µM]
O=C(Nc1ccc(C(F)(F)F)cc1)N1CCC(N2CCCCC2)CC1	25%	-10%
Cc1cc(C)n2nc(CNC(=O)c3cccc(Cl)c3)nc2n1	-10%	-9%
CSc1ncc(Cl)c(C(=O)Nc2c(C(=O)c3ccc(Cl)cc3)oc3ccccc23)n1	-15%	-14%
COc1nc(C(=O)N2CCC(NC(=O)C3CC3)CC2)cc2ccccc12	-5%	-3%
O=C(Cn1c(SCCOc2ccccc2Cl)nc2ccccc21)N1CCOCC1	18%	12%
CC(c1ccccc1Cl)N(C)CCS(=O)(=O)CCC(N)=O (centres undefined)	1%	-11%
Cc1ccc2c(c1)c(=O)c1ccccc1n2CCCC(=O)Nc1cc(Cl)ccc1C	0%	7%
Cc1cc(=O)n2c3ccccc3n(CC(O)CN3CCC(C)CC3)c2c1C#N (centres undefined)	-10%	-12%
CSC1=N/C(=C\c2ccc(-c3cccc(Cl)c3)o2)C(=O)S1	17%	-2%
CCN1CCN(c2oc(-c3ccco3)nc2S(=O)(=O)c2ccccc2)CC1	-6%	11%
Cc1cccc(-c2noc(-c3ccccc3Br)n2)c1	0%	7%
CCC(=O)C1=C(c2ccc3c(c2)CCCC3)N(C(=O)CC)n2c(CC)nnc2S1	?	?
COc1cccc(N2CCN(C(=O)C3CCCN(S(=O)(=O)c4ccc5c(c4)oc(=O)n5C)C3)CC2)c1 (centres undefined)	13%	7%
COc1ccc(OC)c(NC(=O)CC2C(=O)NCCN2C(=O)C(F)(F)F)c1 (centres undefined)	7%	-6%
CN(C(=O)c1cc(-c2ccccc2O)on1)c1ccccc1	98%[activator]	6%
CN(C)c1cc(CNC(=O)c2ccc3c(c2)CCC(=O)N3)ccn1	16%	-8%
CS(=O)(=O)N(CC(=O)N1CCc2ccccc2C1)c1ccccc1	-1%	21%
CN(C)c1ccc(/C=C(\C#N)c2nc(-c3ccc(Cl)c(Cl)c3)cs2)cc1	-14%	-6%
CCCCN(C)CC(O)Cn1cc(/C=C/C(=O)c2ccc(C)cc2)c2ccccc21 (centres undefined)	-5%	-14%
COc1c(Cl)cc(Cl)cc1/C=C(\C#N)c1nc2ccc(C)cc2[nH]1	0%	11%

The results go on:
smiles	StopGo FLuc	StopGo RLuc
O=C(NCC(c1cccs1)N1CCOCC1)c1cc2ccccc2oc1=O (centres undefined)	18%	10%
CCOc1c(/C=C/c2ccc3cccc(O)c3n2)cccc1OC	166%[activator]	11%
COc1ccc(Cc2nnc(SCC(=O)Nc3ccc(Br)c(C)c3)n2C)cc1	17%	19%
CC(Cc1ccc(Cl)cc1)NC(=O)CCCNC(=O)C1CC1 (centres undefined)	15%	22%
Cc1ccc(-c2cc3ncc4c(n3n2)-c2cc(C)ccc2OC4)cc1	3%&10%	-12%&1%
O=C(C1CC1)N1CCc2cc(Br)cc(S(=O)(=O)N3CCN(c4ccccc4F)CC3)c21	-5%	6%
CN(Cc1ccccc1)S(=O)(=O)c1ccc(Cl)c(C(=O)Nc2cccc3cccnc23)c1	19%	106%[activator]
CC(C)c1ccc(-c2cc(C3CC3)nc(N)c2C#N)cc1	3%	21%
CCN(Cc1cccc(F)c1)C(=O)COc1ccc2ccc(=O)oc2c1	3%	10%
COc1cc(F)ccc1-c1ccc(=O)n(Cc2c(F)cccc2Cl)n1	45%[activator]	-19%
Cc1ccc(NC(=O)c2nc3ccccc3nc2N2CCOCC2)c(Cl)c1	-5%	-4%
Cc1ccc(Cn2ncc3c2NC(=O)CC32C(=O)Nc3c(Cl)cccc32)cc1 (centres undefined)	-28%	-17%
Cc1ccc2[nH]c(=O)c(COC(=O)c3ccccn3)cc2c1	-7%	-10%
C=CCOc1nc2c(c(=O)n(Cc3ccc(F)cc3)c(=O)n2C)n1C	-3%	-7%
Fc1ccc(C2=CC(c3c(F)cccc3Cl)n3nnnc3N2)cc1 (centres undefined)	-3%	-8%
C/C=C/C=C/C(=O)NCc1ccc(CN2CCCC2)cc1	-11%	-7%
CN1CCN(S(=O)(=O)c2cc3ccccc3oc2=O)CC1	-5%	-10%
CC(C)N(C(=O)/C=C/c1ccc([N+](=O)[O-])cc1)C(C)C	131%[activator]	11%
O=C(Cn1nc(C(=O)O)c2ccccc2c1=O)Nc1ccc(Oc2ccccc2)cc1	-7%	-11%
Cc1ccc(NC(=O)c2cc(S(=O)(=O)NC3CCCCCC3)ccc2F)cc1F	-25%	117%[activator]
CCOC(=O)c1cc(NC(C)=O)ccc1N1CCOCC1	5%	1%
CCc1cc2c(cc3c(=O)n(CC(=O)NCCc4ccccc4)ncn32)s1	-1%	-5%
COC(=O)c1ccc(NC(=O)CCc2ccco2)cc1	69%[activator]	-10%
CCN(CC)S(=O)(=O)c1ccc(NC(=O)C(C)N(c2cccc(Cl)c2)S(C)(=O)=O)cc1 (centres undefined)	-21%	0%
CCOc1ccc(CCNC(=O)c2nn(-c3ccc(OC)cc3)c(=O)c3c2c2ccccc2n3C)cc1OCC	-10%	8%
Cc1ccccc1CN1C(=O)c2ccccc2Sc2ccc(C(=O)NCCCN3CCOCC3)cc21	?	10%
C/C(=N/NC(=O)OC(C)(C)C)c1ccccc1Cl	147%[activator]	18%
CCc1ccc(-c2nn(CC(=O)NC3CCCCC3)c3c2cnc2ccc(OC)cc23)cc1	-2%	-11%
CCc1ccc(NC(=O)Cn2c(=O)n(CCCCC(=O)NCCc3ccccc3)c(=O)c3ccccc32)cc1	-12%	-15%
N#Cc1ccc(-c2cccs2)nc1SCC(=O)Nc1ccc(Br)cc1	21%	-5%
C=CCNC(=S)Nc1ccccc1Cl	-2%	-1%
O=C(CS(=O)(=O)Cc1ccc(C(F)(F)F)cc1)Nc1ccc(F)cc1F	8%	-1%
COc1ccc(-n2[nH]c(C)c(Cc3ccccc3Cl)c2=O)cc1	101%[activator]	42%[activator]
Cc1ccc(-c2nc3ccccc3nc2-c2ccc(C)cc2)cc1	-6%	-11%
CCc1nc2ccc(C(=O)N3CCN(c4cccc(Cl)c4)CC3)cc2nc1CC	37%[activator]	8%
CN1CCN(c2oc(/C=C/c3ccccc3)nc2C#N)CC1	11%	13%
Cn1c(C(=O)NCC2CCN(CC(F)(F)F)C2)cc2ccccc21 (centres undefined)	5%	-5%
COc1ccc(NS(=O)(=O)c2cc(-c3cnc(C)o3)ccc2C)cc1OC	?	36%[activator]
COc1cc(OC)c(C(=O)NCc2coc(-c3cccs3)n2)cc1OC	7%	1%
CC(NC(=O)CCNC(=O)C(C)(C)C)C(=O)NC1CCCC1 (centres undefined)	13%	1%
CSc1ccc(CCNC(=O)c2c(C)oc3ncn(C)c(=O)c23)cc1	-1%	9%
Cc1c(C(=O)N(C)C)sc2c1c(=O)n(-c1ccc(F)cc1)c(=O)n2CC(=O)N(C)c1ccccc1	-21%	-21%
C#CCOc1ccc(/C=C(/C#N)c2ccc(Cl)cc2)cc1I	0%	24%
Cc1ccc2nc(-c3ccc(Cl)c(NC(=O)c4cccnc4)c3)oc2c1	190%[activator]	-1%
CCCCn1c(=O)[nH]c(=O)c2c1nc(-c1ccccn1)n2CCOC	5%	-4%
CCOc1ccccc1NC(=O)c1ccc(C(=O)Nc2ccccc2OCC)cc1	-23%	1%
O=C(O)CCn1cc(C(C(=O)O)N2CCCC2)c2ccc(Br)cc21 (centres undefined)	5%	-4%
CCOC(=O)c1c(-c2ccccc2)csc1NC(=O)c1nc(SCC)ncc1Cl	-12%	-10%
Cc1cccc(NC(=O)Cn2nc(C)c3nn(-c4ccc(Cl)cc4)c(C)c3c2=O)c1C	0%	-4%
Cc1cc(C)cc(NC(=O)CSc2ccc(S(=O)(=O)N3CCOCC3)cn2)c1	2%	46%[activator]

Sorted by number of heavy atoms (lowest first): part of the list above
smiles	StopGo FLuc	StopGo RLuc
O=C(O)CCn1cc(C(C(=O)O)N2CCCC2)c2ccc(Br)cc21 (centres undefined)	5%	-4%
CCOc1ccccc1NC(=O)c1ccc(C(=O)Nc2ccccc2OCC)cc1	-23%	1%
Cc1c(C(=O)N(C)C)sc2c1c(=O)n(-c1ccc(F)cc1)c(=O)n2CC(=O)N(C)c1ccccc1	-21%	-21%

(further entries)
smiles	StopGo FLuc	StopGo RLuc
CCn1c(N)c(-c2csc(Nc3cc(C)ccc3C)n2)c(=O)[nH]c1=O	5%	-2%
Cc1nnc(NC(=O)c2cc(-c3ccccc3C)nc3ccccc23)s1	-6%	-9%
CCOCCCNC(=O)c1cn(CC)c2ccc(S(=O)(=O)N3CCOCC3)cc2c1=O	-7%	-7%
CC(C)NC(=S)NN=C1CCCCCC1	9%	146%[activator]
C#CCn1c(=O)n(-c2cccc(Cl)c2C)c(=O)c2c3c(sc21)CN(C(C)=O)CC3	25%	56%[activator]
Cn1c(=O)[nH]c(=O)c2c1nc(CN1CCOCC1)n2Cc1ccccc1F	-3%	-10%
O=C(COc1nc2ccccc2nc1N1CCOCC1)NCC(F)(F)F	0%	-9%
N#Cc1c(Nc2ccccc2)ccnc1NCc1ccccc1	130%[activator]	7%
CNCCC(Oc1ccccc1OC)c1ccccc1 (centres undefined)	0%	2%
O=C(Nc1ccccc1C(F)(F)F)C1CCN(c2nnc(-n3cccc3)s2)CC1	22%	1%
O=CN1CCN(C(=O)Cn2nc(C(=O)O)c3ccccc3c2=O)CC1	1%	-6%
C/[N+]([O-])=C/c1ccncc1	-13%	-6%
Cc1ccc(NC(=O)c2ccc(CN3CC(=O)N4CCCCC4C3=O)cc2)c(Cl)c1 (centres undefined)	10%	0%

A portion of the library (hit frequency here may not be typical).
